# Assay outcomes as filed in PubChem BioAssay.
# Sa growth 42C = blocks Staphylococcus aureus growth; S. aureus RN4220 growth, OD600, 20 h, 42 °C; hits give low values; relative growth, % (concentration not given with the values); actives 0.53% (n = 170,000); AID 720641;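 active means growth at 42 °C up to 50% and 20 or more points under that at 30 °C, or under 10% at both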;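 further: 300 nL library stock went into each well; scaled to the means of positive and negative controls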
# GIV-Gai inh = GIV-Galpha-i interaction inhibition. P08753. Galpha-i3/FITC-GIV peptide fluorescence polarization, 90 min; hits give low values; scaled: aluminum fluoride 0%, vehicle 100%. percent of control (FP), % (concentration not given with the values). actives 0.42% (n = 210,000). AID 1224905;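 active means replicate mean at 85% of control or lower, very high polarization wells dropped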;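 further: wells of about 15 µL received 100 nL stock; the first replicate is given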
# Target sequence (P08753 whole entry, looked up): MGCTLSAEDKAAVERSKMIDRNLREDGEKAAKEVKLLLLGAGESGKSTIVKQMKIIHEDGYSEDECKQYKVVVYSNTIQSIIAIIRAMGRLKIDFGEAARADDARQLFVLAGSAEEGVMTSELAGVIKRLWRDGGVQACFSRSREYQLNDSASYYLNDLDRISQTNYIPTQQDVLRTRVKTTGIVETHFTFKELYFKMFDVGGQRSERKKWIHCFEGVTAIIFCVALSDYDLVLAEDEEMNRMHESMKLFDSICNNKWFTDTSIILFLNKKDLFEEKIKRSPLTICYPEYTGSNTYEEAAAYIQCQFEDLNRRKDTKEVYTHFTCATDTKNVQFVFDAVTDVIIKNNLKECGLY
# HCMV NEC inh = disrupts HCMV UL50-UL53 complex binding; inhibition, % (concentration not given with the values); HTRF UL50-UL53 interaction, normalized percent inhibition; AID 1918969; actives 0.15% (n = 190,000);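 active means both replicates at 50% or more, plus weaker picks with an unusually low signal ratio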;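 further: stock transfer was 100 nL into about 20 µL; 0% = negative control wells and 100% = wells with untagged competitor protein; inactives centre near -12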
# Sa growth 42C second temp = recorded beside Sa growth 42C, whose call it bears; relative growth, %; measured here: growth at 30 °C;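 optical density after 20 h as mean of two plates; 100% = untreated growth and lower means inhibition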
# Active calls of the source: *; / = no result given; & = joins results of further samples.
SMILES,Sa growth 42C,Sa growth 42C second temp,GIV-Gai inh,HCMV NEC inh
CN(C1CCCCC1)S(=O)(=O)c1ccc(S(=O)(=O)N(Cc2ccccc2)Cc2ccccc2F)cc1,/,/,100,-20
COc1ccc(-c2nc(CSc3nc4ncccc4[nH]3)c(C)o2)cc1OC,91,76,102,/
COC(=O)c1ccccc1NC(=O)C(C)N(c1ccccc1)S(C)(=O)=O (stereo unspecified),103,67,101,-8
CCN(CC)c1nc(Nc2cc(C)ccc2C)nc(Nc2ccccc2OC)n1,82,82,/,-12
O=C(Nc1ccccc1C(F)(F)F)n1ncc2cc(Cl)ccc21,71,91,111,-4
COC(=O)c1ccc(NS(=O)(=O)c2cc(Cl)ccc2OC)cc1,116,109,100,3
CC1(C)Cc2ccccc2C(CSc2nc3c(c(C(F)(F)F)n2)CCCC3)=N1,92,90,/,-9
Cc1cc(N)n(-c2ccccc2C(F)(F)F)n1,105,92,/,-17
CCn1cc(CCC(=O)NCc2ccccc2Cl)c2ccccc21,/,/,103,-5
CC(=O)n1cccc1C#N,103,101,104,12
CC(C)(C)NS(=O)(=O)c1ccc2c(c1)CCN2C(=O)CCC(=O)N1CCOCC1,/,/,97,-26
CCOc1cccc2sc(N(Cc3cccnc3)C(=O)c3ccc(C#N)cc3)nc12,92,54,96,/
O=C(CCc1nc2cccnc2n1-c1ccccc1)NCCc1ccccc1,81,89,110,/
COc1ccc(OC(=O)c2cn(-c3ccccc3)nc2SC)cc1,99,88,97,4
COC(=O)c1sc(NC(=O)C2c3ccccc3Oc3ccccc32)nc1C,82,83,102,-1
CS(=O)(=O)N1CCN(S(C)(=O)=O)CC1,98,79,100,-7
Cc1ccc(-c2nc(CS(=O)CC(=O)N3CCN(c4ccc(F)cc4)CC3)c(C)o2)cc1 (stereo unspecified),96,83,106,-27
O=C(NC1(C(F)(F)F)C(=O)Nc2c1c(=O)[nH]c(=O)n2CCc1ccccc1)c1ccc(Cl)cc1Cl (stereo unspecified),93,86,106,-20
CC1=C(c2ccc(C)c(C)c2)S(=O)(=O)N(Cc2ccc(C(=O)NC3CC3)cc2)C1=O,/,/,101,-7
CCN(C(=O)CSc1nnc(CN(c2ccc(F)cc2)S(C)(=O)=O)n1C)c1ccccc1,/,/,103,-24

# Next section; the last 4 above are carried over.
SMILES,Sa growth 42C,Sa growth 42C second temp,GIV-Gai inh,HCMV NEC inh
Cc1ccc(-c2nc(CS(=O)CC(=O)N3CCN(c4ccc(F)cc4)CC3)c(C)o2)cc1 (stereo unspecified),96,83,106,-27
O=C(NC1(C(F)(F)F)C(=O)Nc2c1c(=O)[nH]c(=O)n2CCc1ccccc1)c1ccc(Cl)cc1Cl (stereo unspecified),93,86,106,-20
CC1=C(c2ccc(C)c(C)c2)S(=O)(=O)N(Cc2ccc(C(=O)NC3CC3)cc2)C1=O,/,/,101,-7
CCN(C(=O)CSc1nnc(CN(c2ccc(F)cc2)S(C)(=O)=O)n1C)c1ccccc1,/,/,103,-24
COc1cc(C)nc2nc(S(C)(=O)=O)nn12,102,88,97,-13
CC(C)(O)C#Cc1ccc(C2NCCS2)cc1 (stereo unspecified),108,88,101,-8
Oc1ccc2ccccc2c1CN1CCCC(C(F)(F)F)C1 (stereo unspecified),96,97,/,-18
Cc1ccc(CN(C)C(=O)c2cc3c(C)nn(-c4ccc(F)cc4)c3s2)o1,75,71,/,5
Cc1cccc(N2CCN(C(=O)CCC(=O)N3CCSc4ccccc43)CC2)c1C,/,/,102,-186
COc1ccc(Cn2ccc3nc(C)c(C(=O)Nc4ccc(F)cc4)cc3c2=O)cc1,72,84,103&109,6
O=S(=O)(NC1CCN(Cc2ccccc2)CC1)c1cccs1,110,85,113,-6
Cc1nc2cccnc2n1-c1ccc(CC(=O)NCc2ccccc2)cc1,/,/,118,18
C=CCN(CC=C)Cc1c(C)[nH]c2ccc(Br)cc2c1=O,87,81,103,-32
CCOC1CCCCC1NS(=O)(=O)c1ccc(Cl)cc1 (stereo unspecified),122,90,/,-43
C=CCNc1nc2c([nH]c3ccccc32)s1,62,33,87,/
O=C(O)c1cc(NNC(=S)NC2CCCCC2)ccc1Cl,91,94,/,-25
Cn1c(=O)c2c(-c3ccc(Cl)cc3)n(CCO)cc2n(C)c1=O,/,/,105,-28
COc1cccc(CNC(=O)CCCN2C(=O)COc3ccc(C)cc32)c1,99,82,103,-11
CN=c1scc(-c2ccccc2)n1/N=C/c1ccsc1,102,94,/,-36
O=C(CCc1nnc(C(=O)Nc2ccccc2)s1)NCCc1c[nH]c2ccccc12,/,/,100,-13
COc1ccccc1Nc1nc(Nc2cccc(C(F)(F)F)c2)nc(N2CCOCC2)n1,104,102,104,-22
COC(=O)CN1C(=S)N(c2ccccc2)C(=O)/C1=C/c1ccc(-c2ccc(Cl)cc2)o1,114,81,97,/
CCOC(=O)c1ccc(N=Cc2ccc(CC)cc2)cc1,90,103,/,-2
N#CC1(C#N)C(c2ccc(Cl)c(Cl)c2)C1(C#N)C#N,72,43,106,29

# Sorted by value in GIV-Gai inh (lowest first): 3 from the list above
mol,GIV-Gai inh
COC(=O)CN1C(=S)N(c2ccccc2)C(=O)/C1=C/c1ccc(-c2ccc(Cl)cc2)o1,97
COc1cccc(CNC(=O)CCCN2C(=O)COc3ccc(C)cc32)c1,103
Cn1c(=O)c2c(-c3ccc(Cl)cc3)n(CCO)cc2n(C)c1=O,105

# (list continues)
SMILES,Sa growth 42C,Sa growth 42C second temp,GIV-Gai inh,HCMV NEC inh
Cc1c(N2CCC(C(=O)N3CCN(c4ccccc4)CC3)CC2)c(=O)n(C)c(=O)n1-c1ccccc1,/,/,107,-38
COc1ccc(CCNC(=O)c2ccc3c(c2)NC(=O)/C(=C\c2ccc(C)cc2)S3)cc1OC,110,91,108,/
CCC(C)[C@@H](C(=O)Nc1ccc2c(c1)OCO2)N1Cc2ccccc2C1=O (stereo partly specified),86,71,101,-11
O=C(NCC(=O)N1CCCCC1)c1ccccc1,97,91,102,-8
COc1ccc(C(=O)c2c[nH]cc2-c2ccc(C)cc2)cc1OC,/,/,101,-3
O=C(C1CCN(S(=O)(=O)c2cccc3nonc23)CC1)N1CCN(c2ccccc2)CC1,111,95,110,-98
COC(=O)c1c(NC(=O)COc2ccc(C)cc2Br)sc2c1CCCC2,95,100,104,11
Cc1ccc(S(=O)(=O)Nc2ccccc2Oc2ccccc2)cc1,112,74,104,-8
Cc1oc2ncn(C)c(=O)c2c1C(=O)OCc1c(F)cccc1Cl,72,86,/,-21
CN=C(Nc1ccc(C(=O)OC)cc1)c1ccccc1,97,96,/,-14

# Among those listed so far, 3 have a cyano group:
SMILES,Sa growth 42C,Sa growth 42C second temp,GIV-Gai inh,HCMV NEC inh
CC(=O)n1cccc1C#N,103,101,104,12
CCOc1cccc2sc(N(Cc3cccnc3)C(=O)c3ccc(C#N)cc3)nc12,92,54,96,/
N#CC1(C#N)C(c2ccc(Cl)c(Cl)c2)C1(C#N)C#N,72,43,106,29

# (continued)
SMILES,Sa growth 42C,Sa growth 42C second temp,GIV-Gai inh,HCMV NEC inh
CCOc1ccc(NS(=O)(=O)c2ccc3[nH]c4c(c3c2)CCCC4)cc1,106,89,102,/
CS(=O)(=O)c1oc(-c2ccc(F)cc2)nc1S(=O)(=O)c1ccc(Cl)cc1,102,83,103,-30
CCC(Cn1nnc2ccccc2c1=O)NC(=O)Nc1cc(Cl)ccc1OC (stereo unspecified),100,80,103,-38
CCOC(=O)/C(C#N)=C/Nc1nc2c(OC)cccc2s1,86,30,100,-10
Cc1occc1-c1nnc(SCC(=O)N2CCCC(C)C2)n1CC1CCCO1 (stereo unspecified),88,80,102,-28
CC(C)CC(C(=O)Oc1ccc2c3c(c(=O)oc2c1)CCC3)N1C(=O)c2ccccc2C1=O (stereo unspecified),99,86,103,/
COc1ccc(NC(=O)c2ccc3c(c2)nnn3C2CCCC2)cc1Cl,73,93,106,/
CC1CCCC(n2cnc3cc(C(=O)O)ccc32)C1C (stereo unspecified),90,85,99,/
O=C(OCC(=O)c1ccc[nH]1)c1ccc(-n2cnnn2)cc1,81,87,/,-20
COc1cccc(-c2nn(-c3ccccc3)c3c2cnc2ccccc23)c1,95,84,99,/
CC(=O)Nc1ccc(-c2nc3ncccc3o2)cc1C,105,94,107,-5
O=C(COc1ccc2oc(-c3ccco3)cc(=O)c2c1)NCc1ccccc1,108,104,114,-22
COc1ccc(C(N)=CC(=O)OC(C)(C)C)cc1,95,111,101,-4
COc1ccc(NC(=O)N2CCCC(C(N)=O)C2)cc1 (stereo unspecified),96,78,93,-25
O=C(c1ccccc1)c1ccc(Oc2ncccn2)cc1,86,91,/,-3
Cc1ccccc1N1CCN(C(=O)c2c(C)oc3cc4c(C(=O)N5CCN(c6ccccc6C)CC5)c(C)oc4cc23)CC1,97,89,106,-10
COc1ccc(CN2CCC(C(=O)NCc3ccc(C)cc3)CC2)cc1,101,101,/,2
COc1ccc2c(c1)c1c(c(=O)n(-c3ccc(C)cc3)c(=O)n1CC(=O)c1ccc(Cl)cc1)n2C,124,82,108,/
Cc1cc(C(=O)CSc2ncccn2)c(C)n1Cc1ccccc1,88,86,/,-16
c1c2c(cc3sc(N4CCCC4)nc13)OCO2,94,92,103,-31
COc1ccc(Nc2n[nH]nc2C(=O)Nc2ccc(F)cc2C)cc1,/,/,107,8
CC(=O)Oc1cc(-c2cccc(C(F)(F)F)c2)c2oc(=O)sc2c1,11,25,101,/
CCOc1ccc(-n2c(SCC(=O)c3ccccc3)nc3c([nH]c4ccccc43)c2=O)cc1,99,98,102,/
CSc1nc2c(=S)[nH]c(=S)[nH]c2s1,71,45,107,-72
COc1ccc2c(c1)sc1ncc(C(=O)NCc3cccc(Cl)c3)c(=O)n12,97,89,97,-9
CCc1ccc(NC(=O)N2CCCCC2C)cc1 (stereo unspecified),111,97,106,-21
Cc1cc(COC(=O)C23CCC(=O)N2c2ccccc2C(=O)N3C2CC2)no1 (stereo unspecified),92,82,/,-25
CCN(c1ccccc1)S(=O)(=O)c1ccc(N2CCN(CC(=O)N3CCCCCC3)CC2)nc1,105,101,/,22
COc1ccc2nc(NC(=O)c3nc(S(=O)(=O)Cc4ccccc4F)ncc3Cl)sc2c1,92,89,107,-11
CC1SC(=NC(=O)c2ccco2)NC1=O (stereo unspecified),117,96,103,10
CCc1c(N)n[nH]c1C,102,87,102,-25
CCOC(=O)c1cc(-n2cccc2)ccc1N1CCCCC1,92,87,104,-27
COc1ccc(CCNc2ncnc3c2cnn3-c2ccc(F)cc2)cc1OC,95,95,104,-5
N#CSc1ccc(Nc2cc(N3CCCCC3)c3nonc3c2[N+](=O)[O-])cc1,/,/,108,-18
Cc1nn(C(=O)Nc2ccc(F)c(Cl)c2)c2ccccc12,/,/,102,-33
COC(=O)C1=C(c2ccccc2)c2cc(Cl)ccc2S(=O)(=O)N1CC(=O)Nc1cc(F)ccc1F,/,/,104,-34
CCS(=O)(=O)Nc1ccc(OC)c(Cl)c1,104,99,99,-19
COc1cc(CNCCSc2nnnn2C)cc(Br)c1OCc1ccccc1Cl,/,/,99,-25
CC(=O)Nc1ccc(NC(=O)c2ccc3c(c2)CC(c2ccc(C)cc2)OC3=O)cc1 (stereo unspecified),/,/,100,-12
CC(=O)N1CCCc2cc(S(=O)(=O)NCc3ccccc3Cl)ccc21,106,95,110,/
CC(Sc1nnc(-c2ccc3c(c2)OCO3)o1)C(=O)N1CCc2ccccc2C1 (stereo unspecified),83,80,/,-20
Cc1cc(S(=O)(=O)NCC(c2ccco2)S(=O)(=O)c2ccccc2)ccc1F (stereo unspecified),135,94,97,/
Cc1ccc(CNC(=O)CN(c2ccc(C)cc2)S(=O)(=O)c2c(C)nn(C)c2C)cc1,106,89,103,9
COc1ccc(OC)c(S(=O)(=O)CC(O)COc2ccc(Br)cc2)c1 (stereo unspecified),103,75,98,-10
CC(C)CCNC(=O)Cn1nc(-c2ccccc2)ccc1=O,122,79,103,/
Cc1cc(C)nc(NC(=O)CCCn2nnc3cc(S(=O)(=O)N(C)C)ccc32)n1,/,/,111,-2
CC1CCCC(C)N1C(=O)Cn1nc(C(=O)O)c2ccccc2c1=O (stereo unspecified),105,94,/,-12
Cc1cc(Cl)ccc1NC(=O)C1CCN(S(=O)(=O)c2ccc3[nH]c(=O)ccc3c2)CC1,119,83,101,/
O=C(Nc1ccccc1)C1CCN(c2ccc(C(F)(F)F)cn2)CC1,86,85,101,-14
COc1cc(/C=C2\Sc3ccccc3C2=O)ccc1OCC#N,/,/,106,1
# The results go on:
SMILES,Sa growth 42C,Sa growth 42C second temp,GIV-Gai inh,HCMV NEC inh
Cc1nsc(NC(=O)C2COc3ccccc3O2)n1 (stereo unspecified),/,/,103,-6
C=C1C(C(=O)Nc2cccc(OC)c2)C1C(=O)Nc1cccc(OC)c1 (stereo unspecified),98,86,/,-6
CC1=CC(c2ccccc2)n2nc(N)nc2N1 (stereo unspecified),83,96,/,9
CC(C(=O)O)c1ccc(N2Cc3ccccc3C2=O)cc1 (stereo unspecified),94,93,/,-7&-36
O=C(Cc1c[nH]c2ccccc12)OCC(=O)c1cc2ccccc2o1,81,92,/,-11
Cc1n[nH]c(C)c1C(C)N (stereo unspecified),98,93,104,5
CCOC(=O)c1ccc(CS(=O)(=O)c2ccc(Cl)cc2)o1,126,94,100,6
Cc1cccc(Nc2ncnc3onc(-c4ccc(Cl)cc4)c23)c1C,112,93,106,/
CC(c1ccco1)N(C(=O)c1ccc(-c2ccccc2)cc1)c1ccccn1 (stereo unspecified),118,87,/,-28
O=C(CCn1c(SCC(=O)c2ccc(F)cc2)nc2cc3c(cc2c1=O)OCO3)NCc1ccc2c(c1)OCO2,91,87,106,-20
